# Bioassay records: PubChem, National Center for Advancing Translational Sciences (NCATS)
# RE007 growth inh: less growth of the S. pombe RE007 Vpr strain. S. pombe RE007 Vpr strain, BacTiter-Glo ATP luminescence, 24 h; control for the full effect not named in the record. Potency, µM (highest dose often 92.2 µM), for inactives: top-dose activity change, negative = less growth. 0.21% of 360,000 active; active = well fitted falling curve with a large enough effect; inconclusive = small, poorly fitted or top-dose-only effect; inactive = no such curve, though single readings can be large or run the other way;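 further: on the % scale 0 is the no-effect control and ±100 the full control effect; nearly all actives have a fitted effect of over 50% in size; the assay follows cell death caused by Vpr and the record does not say whether a fall means rescue or toxicity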
#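 Fission yeast RE007 carrying one integrated HIV-1 vpr copy, seeded at OD 0.01 in PMG+AL medium with 23 nL pinned compound. Grown 24 h at 30 degrees; viability read by BacTiter-Glo luminescence after 5 min.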
# MARV entry inh: inhibitors of Marburg virus binding or cell entry; Potency, µM (titrated, usually from 37.8 µM), for inactives: at the top dose activity change, negative = inhibition, actives largely listed as inhibitors; 1.8% of 300,000 active; Marburg virus pseudotyped entry inhibition, cell reporter; control for the full effect not named in the record; about a third of the inactives were read at about 46 µM; active = well fitted inhibition curve with a large enough effect; inconclusive = small, poorly fitted or top-dose-only effect, or effect the other way; inactive = flat fitted curve, though single readings scatter; tested in HEK293 cells; about a fifth of its hits are not listed in these tables; further: on the % scale 0 is the no-effect control and ±100 the full control effect; luciferase read-out
# NS1 inh: blocks influenza NS1 protein function; 0.4% of 270,000 active; AID 2326; S. cerevisiae slowed by influenza A NS1, growth recovery by OD600; Potency, µM (highest dose often 46.1 µM), inactives show at the highest dose activity, positive = more growth; active means well fitted rising curve with a large enough effect; inconclusive means small, poorly fitted or top-dose-only effect; inactive means no such curve, though single readings can be large or run the other way; further: nearly all actives have a fitted effect of over 50% in size
#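 S. cerevisiae expressing influenza A NS1, grown in glucose, washed, then diluted 1:100 into pH 6.0 -URA galactose medium with 23 nl compound. Growth recovery read as OD600; NS1-free strain serves as control.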
# SARS PLpro yeast: blocks SARS-CoV papain-like protease in a yeast assay; 0.19% of 330,000 active; AID 485353; S. cerevisiae expressing SARS-CoV PLpro, growth rescue; control for the full effect not named in the record; Potency, µM (series often up to 32.9 µM), for the others: top-dose activity, positive = growth rescue; active means well fitted rising curve with a large enough effect; inconclusive means small, poorly fitted or top-dose-only effect; inactive means no such curve, though single readings can be large or run the other way; further: 0% is about no effect; nearly all actives have a fitted effect of over 55% in size; growth read by luminescence after 48 h
# 2A StopGo: lowers the luciferase signal of an FMDV 2A StopGo reporter; AID 1159524; human cells with a luciferase reporter of 2A StopGo recoding; control for the full effect not named in the record; Potency, µM (doses to about 57.9 µM), for the others: at the top dose signal change, negative = less light; 1.2% of 410,000 active; active = well fitted falling curve with a large enough effect; inconclusive = small, poorly fitted or top-dose-only effect; inactive = no such curve, though single readings can be large or run the other way; tested in HEK293T cells; further: on the % scale 0 is the no-effect control and ±100 the full control effect; nearly all actives have a fitted effect of over 45% in size; luciferase light after 4 h
# Lassa entry inh: blocks Lassa virus binding to or entry into cells. Lassa virus pseudotype entry inhibition, cell reporter; control for the full effect not named in the record. Potency, µM (doses to about 37.9 µM), for the others: at the top dose activity change, negative = inhibition, actives largely listed as inhibitors. 1.2% of 300,000 active. AID 540256; active means well fitted inhibition curve with a large enough effect; inconclusive means small, poorly fitted or top-dose-only effect, or effect the other way; inactive means flat fitted curve, though single readings scatter; tested in HEK293 cells; further: on the % scale 0 is the no-effect control and ±100 the full control effect; nearly all actives have a fitted effect of over 50% in size; luciferase read-out
# Cruzain noTriton: blocks cruzain activity in detergent-free assay; P25779; purified cruzain, Z-FR-AMC fluorescence, no detergent; Potency, µM, for inactives: max response, negative = inhibition, hits mostly inhibitors; 2.3% of 200,000 active; AID 1476;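 further: plate controls were enzyme without inhibitor for no effect and buffer without enzyme for full effect; nearly all actives have a fitted effect of over 40% in size; top concentration of the series not given in the record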
# Target sequence (P25779 123-467 limits assumed): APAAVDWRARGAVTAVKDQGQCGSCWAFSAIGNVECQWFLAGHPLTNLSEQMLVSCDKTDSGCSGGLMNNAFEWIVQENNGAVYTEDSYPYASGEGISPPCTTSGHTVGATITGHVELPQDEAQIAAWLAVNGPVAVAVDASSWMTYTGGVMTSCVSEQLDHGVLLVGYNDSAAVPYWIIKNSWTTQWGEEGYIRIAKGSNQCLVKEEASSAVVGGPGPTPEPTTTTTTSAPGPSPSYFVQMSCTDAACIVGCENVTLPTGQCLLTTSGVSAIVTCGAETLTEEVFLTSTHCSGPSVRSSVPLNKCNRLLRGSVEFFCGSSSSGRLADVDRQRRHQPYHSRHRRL
#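 Purified cruzain at 1.5 nM, pre-incubated 15 min with compound at room temperature in 100 mM sodium acetate pH 5.5, 5 mM DTT, 0.00005% Triton X-100. Reaction started with 2 uM Z-FR-AMC; AMC fluorescence increase over 60 s gives rate.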
# Cruzain Triton: inhibitors of Trypanosoma cruzi cruzain with detergent. purified cruzain, Z-FR-AMC fluorescence, 0.01% Triton. P25779. Potency, µM, for the others: max response, negative = inhibition, most hits filed as inhibitors. AID 1478. 0.43% of 200,000 active;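 further: plate controls were neutral wells for no effect and buffer without enzyme for full effect; nearly all actives have a fitted effect of over 40% in size; top concentration of the series not given in the record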
#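 In this qHTS format, compounds are incubated with 1.5 nM cruzain for 15 min at room temperature before 2 uM Z-FR-AMC is added. Release of AMC is followed at 360/450 nm, and progress is taken as the 60 s fluorescence difference.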
# Active calls of the source: *; ? = inconclusive; . = no result given; & = joins results of further samples; [ ] = another dose, or the depositor's remark. Unless noted, the call rests on the fitted dose curve; in most records, active means well fitted curve in the direction sought with a large enough effect; inconclusive means small, poorly fitted or top-dose-only effect, or another doubt; inactive means no such curve, though single readings can be large; an effect the other way counts as inactive or inconclusive. Potency means the concentration at half of the fitted maximal effect. Compounds as they come; any-hit rate near 4.7%.
SMILES,RE007 growth inh,MARV entry inh,NS1 inh,SARS PLpro yeast,2A StopGo,Lassa entry inh,Cruzain noTriton,Cruzain Triton
COc1ccc(COCC(O)CN2CCC(CN3C(=O)c4cccc5cccc(c45)C3=O)CC2)cc1OC (configuration not stated),6%,9.2µM*,4%,0%,?,?,-14%,-9.6%
Cc1ccc(S(=O)(=O)NNC(=O)Nc2cccc3ccccc23)cc1,9%,10%,6%,7%,3%,2%,?,-1.5%
COc1ccc(-n2c(=O)n(Cc3ccccc3)c(=O)c3[nH]cnc32)cc1,2%,.,-2%,2%,-16%,.,.,.
COC(=O)c1ccc(Cn2c(O)c(N=O)c3ccccc32)o1,6%,-15%&-15%[46.1 µM],-12%,4%,-12%,-14%,-8%,-4.0%
O=C(NCCc1ccccc1)c1ccccc1SCC(=O)N1CCCC1,-8%,?,5%,3%,31%[activator],-16%[46.1 µM],.,.
COc1ccc(C2(C)NC(=O)N(CC(=O)c3cc(C)n(C4CC4)c3C)C2=O)cc1OC (configuration not stated),5%,?,.,1%,0%,-5%,.,.
CC(=O)Nc1sc(-c2ccc(Cl)cc2)nc1-c1ccccc1,-1%,6%[46.1 µM],1%,1%,-2%,13%[46.1 µM],.,.
O=C(NC1CCCCC1)C(c1ccccc1F)N(C(=O)c1csnn1)C1CCCC1 (configuration not stated),-3%,?,7%,5%,-3%,-4%[46.1 µM],.,.
CC1CCN(CCCNC(=O)CN2C(=O)CSc3ccc(S(=O)(=O)N4CCCCC4)cc32)CC1,15%,.,-5%,2%,-14%&-7%,?,-2%,0.0%
CCN(CC)C(=O)CC(c1ccc2c(c1)OCO2)c1c(OC)cc(OC)c2c(-c3ccccc3)cc(=O)oc12 (configuration not stated),-11%,.,-3%,-1%,84%[activator],.,.,.
CCCC(=O)NC(=S)Nc1ccccc1F,-24%,9%,-30%,20%,27%,-11%,5%,4.5%
CCOC(=O)c1ccccc1NC(=O)COC(=O)Cc1ccccc1F,-13%,-6%,.,-2%,0%,-2%,.,.
CCOC(=O)c1cc(NC(=O)Nc2nccs2)c(C)nc1C,-5%,-9%,16%,26%,-22%,2%,2%,-1.8%
O=C(Nc1ccc(F)cc1F)c1cc(Cl)sc1Cl,-16%,?,-3%,1%,36%[activator],?,.,.
COc1ccccc1-n1c(-c2ccccc2Br)nc2ccccc2c1=O,13%,3%[46.1 µM],-4%,-2%,0%,?,.,.

# Reprinted at random: six entries already listed.
SMILES,RE007 growth inh,MARV entry inh,NS1 inh,SARS PLpro yeast,2A StopGo,Lassa entry inh,Cruzain noTriton,Cruzain Triton
CCOC(=O)c1cc(NC(=O)Nc2nccs2)c(C)nc1C,-5%,-9%,16%,26%,-22%,2%,2%,-1.8%
CCCC(=O)NC(=S)Nc1ccccc1F,-24%,9%,-30%,20%,27%,-11%,5%,4.5%
CC(=O)Nc1sc(-c2ccc(Cl)cc2)nc1-c1ccccc1,-1%,6%[46.1 µM],1%,1%,-2%,13%[46.1 µM],.,.
COC(=O)c1ccc(Cn2c(O)c(N=O)c3ccccc32)o1,6%,-15%&-15%[46.1 µM],-12%,4%,-12%,-14%,-8%,-4.0%
CCN(CC)C(=O)CC(c1ccc2c(c1)OCO2)c1c(OC)cc(OC)c2c(-c3ccccc3)cc(=O)oc12 (configuration not stated),-11%,.,-3%,-1%,84%[activator],.,.,.
COc1ccccc1-n1c(-c2ccccc2Br)nc2ccccc2c1=O,13%,3%[46.1 µM],-4%,-2%,0%,?,.,.

# (next part)
SMILES,RE007 growth inh,MARV entry inh,NS1 inh,SARS PLpro yeast,2A StopGo,Lassa entry inh,Cruzain noTriton,Cruzain Triton
CCCCCc1c(C)nc(SCC(=O)O)[nH]c1=O,2%,-22%,-2%,3%,-3%,2%,4%,5.5%
COc1ccc2c(c1OC)C(=O)OC2Nc1nc(-c2cc3cc([N+](=O)[O-])ccc3oc2=O)cs1 (configuration not stated),?,15%,-6%,5%,-1%,0%,1%,-11%
Cc1ccc(/C=N/N=C/c2ccc(C)s2)s1,?,?,-6%,-7%,0%,?,-7%,-8.7%
Cc1ccc(-c2c(C(=O)N3CCN(c4cc(Cl)ccc4C)CC3)oc(=O)c3ccccc23)cc1,.,8%[46.1 µM],.,.,?,9%[46.1 µM],-10%,0.0%
CC1CN(C(=O)CCC(=O)NCc2ccccc2Cl)c2ccccc2S1 (configuration not stated),10%,.,-3%,-1%,18%,.,.,.
N#CCCn1cc(C(=O)Nc2ccccc2Br)c(-c2ccc([N+](=O)[O-])cc2)n1,0%,-5%,-3%,-7%,-1%,?,?,-5.6%
COc1ccccc1N1CCN(Cc2c[nH]c3ccccc23)CC1,3%,?,3%,-1%,-16%,-3%,.,.
Cc1ccc([N+](=O)[O-])cc1S(=O)(=O)NCCc1c(C)[nH]c2ccccc12,-1%,-3%,16%,-3%,11%,-16%,13%,-13%
O=C(CSc1nc(-c2cccs2)cc(C(F)(F)F)n1)NCc1ccccc1,-3%,-28%,-5%,-8%,-13%,2%,-3%,-5.0%
Cc1ccc(Cn2cccc(C(=O)Nc3ccc(C)c(Cl)c3)c2=O)cc1,.,.,.,.,?,4%[46.1 µM],3%,1.1%
COc1ccc2cc(CCNC(=O)CC(C)(C)C)c(=O)[nH]c2c1,6%,23%,-5%,-1%,.,1%,-4%,-2.3%
CCOC(=O)c1oc2cc(O)cc(C)c2c(=O)c1-c1cscn1,0%,8%,-1%,3%,-22%,6%,-2%,5.9%
CCOC(=O)Cc1csc(NC(=O)CCNS(=O)(=O)c2ccc3c(c2)CCC(=O)N3)n1,-13%,4%&4%,1%,13%,-25%,8%,-1%,6.6%
COc1ccc(NC(=O)C2CCCN(C(=O)c3cnn(-c4ccc(F)cc4)c3-n3cccc3)C2)cc1 (configuration not stated),.,.,.,.,-17%,4%[46.1 µM],?,-12%
C/C=C(\C)C(=O)NCCN1C2=NC[C@@H](C)N2C[C@H]1Cc1ccc(O)cc1,-10%,.,2%,1%,0%,.,.,.
N#CNC1=NCN(Cc2ccccc2)CN1,12%,-8%,-2%,0%,19%,36%,0%,5.6%
CC(OC(=O)C1CCN(S(=O)(=O)c2ccccc2)CC1)C(=O)Nc1ncc(Cl)cc1Cl (configuration not stated),-7%,10%,-4%,2%,-16%,4%,0%,-1.4%
COc1ccc(N2CCN(S(=O)(=O)c3ccc(-n4cnnn4)c(C)c3)CC2)cc1,-15%,14%,2%,13%,-25%,2%,-2%,-1.1%
CCCCOC(=O)c1[nH]c2c(c1C)C(=O)CC(c1cc(OC)c(OC)c(OC)c1)C2 (configuration not stated),10%,7%,-8%,3%,16µM*,.,?,-4.1%
O=C(O)c1ccccc1C(c1ccc(O)cc1)c1ccc(O)cc1,-13%,-23%&-23%&-23%[46.1 µM],6%,0%,47%[activator],6%,-1%,4.1%
CC1(C)CCCN(Cc2c(O)ccc3c(=O)c(-c4nc5ccccc5s4)c(N)oc23)C1,12%,23%[46.1 µM],-10%,-1%,22%,2%,.,.
CN1CCc2cc(O)cc3c2C1Cc1ccc(O)c(O)c1-3 (configuration not stated),.,?,15%,.,-19%,.,11%,-9.0%
Cc1[nH]c2ccccc2c1/C=N/NC(=O)Nc1ccccc1,-9%,?,.,3%,35%[activator],2%,.,.
CCCC(=O)N(C)c1nnc(-c2ccc(OC)cc2)s1,.,3%,-10%,8%,40%[activator],.,21%,-2.6%
Cc1cc(C)n(-c2nnc(Cl)c3ccccc23)n1,4%,?,2%,0%,-28%,?,.,.
CCOC(=O)N1CCN(C(=O)CCNS(=O)(=O)c2cc(Br)cnc2N)CC1,13%,0%,-10%,2%,2%,-10%,2%,11%
COc1cccc(C(=O)N2N=C(c3cccc(OC)c3)CC2(O)C(F)(F)F)c1 (configuration not stated),6%,?,-21%,-5%,.,8%,-7%,-1.3%
CCC1CN(S(=O)(=O)c2cc(-c3cc(C)no3)ccc2C)c2cc(C)ccc2O1 (configuration not stated),.,.,.,.,-15%,14%[46.1 µM],-12%,1.5%
CC(=O)c1ccc(NC(=O)C(C)NCc2ccccc2Cl)cc1 (configuration not stated),-19%,-1%[46.1 µM],.,-1%,0%,3%[46.1 µM],.,.
COc1ccc(-c2nnc(SCC(=O)NCCc3ccccc3)o2)cc1,13%,12%,-5%,-10%,-12%,14%,-15%,0.2%
O=C(Nc1ccc(S(=O)(=O)N2CCCCC2)cc1)c1ccccc1Cl,11%,?,-8%,-18%,-14%,-23%,-5%,-5.9%
Cc1cc(NC(=O)CN2CCOCC2)n(-c2nc3ccccc3s2)n1,1%,?,-9%,.,-12%,0%,?,3.5%
O=c1c2cc(NC(=S)NCc3cccnc3)ccc2nc2n1CCCCC2,-7%,?,14%,-6%,17%,0%[46.1 µM],.,.
CC(=O)c1cccc(NC(=O)CN2CCc3cc4c(cc3C2)OCCCO4)c1,-22%,.,-3%,5%,-7%,.,.,.
CC1CCN(S(=O)(=O)c2ccc3ncn(CC(=O)N(C)Cc4ccccc4)c(=O)c3c2)CC1,4%,?,1%,-2%,-3%,-21%,?,3.7%
O=C(CCN1C(=O)c2ccccc2C1=O)C1=NN[C@@H]2C(=O)N(c3ccc4c(c3)OCO4)C(=O)[C@H]12,31%,3%,-5%,-2%,6%,-4%,.,.
Nc1nc2nonc2nc1N1CCCCC1,-7%,0%,-3%,4%,2%,10%,-4%,-3.5%
COc1ccc(S(=O)(=O)NCC2CCC(C(=O)NCc3ccco3)CC2)cc1 (configuration not stated),1%,?,6%,?,-2%,-25%,-15%,3.5%
CCOC(=O)C(C(=O)Nc1nccs1)C1CCCCC1 (configuration not stated),-6%,?,-4%,4%,-19%,-1%,-13%,0.0%
Cc1nc(NC(=O)c2ccco2)sc1-c1csc(Nc2ccc(Cl)cc2Cl)n1,-11%,.,-17%,-18%,-23%,.,13µM*,-3.1%
